AF4-AF9 inh – MLL-AF4/AF9 protein interaction inhibition. inhibition, % at 10 µM. 350,000 tested, 0.47% active. AlphaScreen, biotin-AF4 peptide binding to FLAG-AF9. P42568;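 active means every replicate reaching a set inhibition limit, whatever the replicate mean, cut at about 25% in these data; inconclusive means mean inhibition reaches that limit but some replicates miss it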;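 further: 0% = plate neutral control median and 100% = total signal loss; the record names both 10 and 1 µM as test concentration; the first replicate is given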
Target sequence (P42568 whole entry, looked up): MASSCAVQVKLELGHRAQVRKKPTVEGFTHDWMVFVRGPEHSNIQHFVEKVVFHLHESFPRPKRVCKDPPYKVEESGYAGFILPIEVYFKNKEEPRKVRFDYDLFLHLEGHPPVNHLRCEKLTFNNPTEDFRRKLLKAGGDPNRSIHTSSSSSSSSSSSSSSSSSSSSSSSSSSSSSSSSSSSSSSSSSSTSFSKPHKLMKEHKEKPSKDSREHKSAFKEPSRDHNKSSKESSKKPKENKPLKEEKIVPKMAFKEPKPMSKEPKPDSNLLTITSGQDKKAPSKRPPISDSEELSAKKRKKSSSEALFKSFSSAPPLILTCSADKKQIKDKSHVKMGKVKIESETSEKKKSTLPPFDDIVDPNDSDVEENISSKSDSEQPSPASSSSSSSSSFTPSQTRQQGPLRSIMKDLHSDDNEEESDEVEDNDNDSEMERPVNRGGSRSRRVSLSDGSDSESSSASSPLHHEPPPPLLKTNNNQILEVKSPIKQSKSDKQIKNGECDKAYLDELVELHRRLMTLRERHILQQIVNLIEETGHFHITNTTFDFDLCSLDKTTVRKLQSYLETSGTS
Bfl-1 A1 inh – inhibitors of the anti-apoptotic protein A1, read as caspase activation; MEF A1-2A-BIM cells, Caspase-Glo 3/7 luminescence, 3 h; percent of clofoctol response, vehicle zero; 330,000 tested, 0.066% active; caspase activation, % (test concentration not listed);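 active means over half of replicate activation scores above 10%, or exactly half above 10 with the replicate mean above 10; inconclusive means replicate mean below 10 yet half the replicates above 10; inactive means over half of replicates below 10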;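 further: wells of about 30 µL received 50 nL stock; many hits fall short of the cut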
Calb FLC – C. albicans growth modulation with fluconazole. C. albicans CaCi-2 (fluconazole-resistant clinical isolate) + fluconazole, Alamar Blue growth, 48 h. AID 1979. growth inhibition, % (no concentration beside the values). 300,000 tested, 0.57% active;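 active means most replicates above 75%; inconclusive means exactly half above 75%; inactive means most below 75%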;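 further: all wells also contain fluconazole at 8 µg/ml as a sub-toxic cotreatment; 0% = median of DMSO wells and 100% = median of geldanamycin control wells; wells of about 8 µL received 7.5 nL stock; the first replicate is given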
Vif TR-FRET – inhibitors of Vif binding to APOBEC3G peptide, primary screen, biochemical, TR-FRET, GST-Vif 1-94, biotin-A3G peptide, dose response retest (AID 1117319). inhibition, %; hits with a dose series show IC50 in µM. TR-FRET GST-Vif / biotin-A3G peptide binding; higher % means a stronger effect; test concentration not given here; strong numbers were not always called active. 260,000 tested, 0.57% active;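 active means above the screen mean plus three standard deviations and confirmed in dose response; inconclusive means results disagree or hit not tested in dose response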;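 further: Vif residues 1-94 fused to GST binding biotinylated APOBEC3G peptide 110-148; 0% = full assay without inhibitor and 100% = GST in place of GST-Vif; retest series ran down from 100 µM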
RanGTP-Impb inh – inhibitors of RanGTP-importin-beta interaction, primary screen, biochemical, FRET, CFP-Ran, YFP-importin-beta, homogeneous; AID 2216; 300,000 tested, 1.1% active; cell-free CFP-Ran/YFP-importin-beta FRET ratio; inhibition, % (concentration not given with the values);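 active means most replicates above 15%; inconclusive means exactly half above 15%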;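 further: 0% = DMSO wells and 100% = Ran loaded with GDP instead of GTP; wells of about 40 µL received 100 nL stock; the first replicate is given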
Ecoli rRNA inh – inhibits bacterial ribosomal RNA function over humanized ribosomes | E. coli WT GFP vs humanized-ribosome RFP mutants, fluorescence, 24 h; active compounds read low; DMSO median 0, no signal -100 | GFP signal change (wild-type ribosome), % (concentration not given with the values) | 350,000 tested, 1.6% active;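 active means significant combined selectivity score with lowered wild-type GFP, culture density cut under 30%, mutant RFP and density less affected; inactive means any of these conditions unmet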; further: one replicate is shown; some compounds called inactive have numbers as strong as hits
T cruzi repl – blocks replication of Trypanosoma cruzi. 300,000 tested, 1.4% active. T. cruzi beta-gal in NIH3T3, luminescence, 90 h. inhibition, % (no concentration beside the values);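 active means mean inhibition across valid replicates above about 55%, limit read from the data; inconclusive means mean below that limit but half or more replicates reach it; inactive means mean below it, under half of replicates reach it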;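 further: signal also drops with host cell toxicity which is not excluded here; 0% = plate median of DMSO wells and 100% = zero luminescence signal; higher percent means less beta-gal luminescence so fewer parasites; stock transfer was 50 nL into about 50 µL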
Beta cell apopt – beta cell apoptosis inhibition | INS-1E cytokine-induced death, ATP luminescence, 48 h; percent of positive-control rescue, neutral wells zero | protection from apoptosis, % (no concentration beside the values) | 300,000 tested, 0.8% active;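 active means all replicates at 75% or more, or half of them and the mean; inconclusive means half reach 75% but not the mean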;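 further: 0% = cytokine-treated negative control wells and 100% = positive control rescue; higher means more ATP so stronger rescue from cytokine killing; wells of about 40 µL received 100 nL stock; the first replicate is given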
Ecoli rRNA inh OD600 – further read-out of Ecoli rRNA inh, marked with its call; OD600 change, %; measured here: OD600 growth;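 optical density of the mix in the first replicate; 0 = DMSO median and -100 = no signal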
Ecoli rRNA inh RFP – second read-out of Ecoli rRNA inh, no call of its own (marks repeat the call); RFP signal change, %; measured here: RFP humanized mutant strains;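 first replicate; 0 = DMSO median and -100 = no signal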
* = called active by the depositor; ? = inconclusive; / = no result given; & = joins results of further samples.

Results follow in this order: Ecoli rRNA inh RFP, T cruzi repl, Calb FLC, RanGTP-Impb inh, Ecoli rRNA inh OD600, Beta cell apopt, AF4-AF9 inh, Bfl-1 A1 inh, Vif TR-FRET, Ecoli rRNA inh
- COC(=O)/C(=C\c1ccc([N+](=O)[O-])o1)NC(=O)c1ccccc1
  /, 49.2, 101.8*, 1.7, /, -9.9, /, 0.1, 23.0%, /
- Cn1cc(C(=O)NCc2cccnc2)c(=O)c2cc(S(=O)(=O)N3CCCCCC3)ccc21
  /, -6.4, -14.7, 0.2, /, -2.3, /, 1.1, -0.2%, /
- CC1(OC(=O)C2CCCC2)C(=O)C=C2C=C(C3CC3)OC=C2C1=O (stereo unspecified)
  /, -12.9, -7.1, 5.0, /, -4.2, /, 1.1, /, /
- CCc1nnc(NC(=O)c2ccc(S(=O)(=O)N3CCCC3)cc2)s1
  -3.6, -3.6, -3.3, -0.5, 12.7, -1.5, -2.2, 0.2, /, 8.6
- COc1ccc(-c2nnnn2C(C)C)cc1
  -1.7, -5.9, -6.4, -3.8, -0.3, -5.6, /, -0.3, 32.0%, -3.6
- CC(CCc1ccccc1)NC(=O)COC(=O)CC1CC2CCC1C2 (stereo unspecified)
  /, -23.1, -4.5, 0.4, /, 1.1, /, 0.9, /, /
- Fc1ccc(NC(=S)N2CCCc3ccccc32)cc1
  /, -3.1, -17.0, -0.8, /, 1.4, /, -0.3, ?, /
- O=C1C(c2ccc(F)cc2)N(CC2COc3ccccc3O2)C(=O)CN1C1CCCCC1 (stereo unspecified)
  /, 17.8, 4.7, ?, /, 2.8, /, 2.3, -1.2%, /
- CC(=O)Nc1cccc(OCC(=O)/C=C2\N(C)c3ccccc3C2(C)C)c1
  67.8, ?, 25.6, -2.9, -41.7, 58.4, 2.9, 0.0, -2.2%, -18.4
- COc1ccc2c(c1)sc(=N)n2CC(=O)Nc1cc(C)cc(C)c1
  -2.7, -18.8, 30.6, ?, 2.9, -1.3, -1.2, 0.3, -11.8%, 6.3
- COc1ccccc1CNC(=O)COC(=O)c1cccs1
  3.7, /, /, /, 9.1, -8.1, 0.4, 0.1, /, 15.8
- Cc1cc(=O)nc2c3ccccc3n(C(C)C(=O)NCCC(C)C)n12 (stereo unspecified)
  -5.5, 3.7, -8.1, -4.8, 1.7, -0.5, 3.9, 0.0, 70.6%, 4.5
- CCn1c2ccccc2c2cc(NC(=O)N3CCOCC3)ccc21
  /, -2.7, 3.0, -5.7, /, 1.0, /, -0.1, 4.9%, /
- COCCn1c(SC(C)C(=O)Nc2ccc3c(c2)OCCO3)nc2ccccc2c1=O (stereo unspecified)
  /, 6.8, -1.9, -1.8, /, -1.8, /, 0.0, 4.2%, /
- Cc1ccc2c(c1)N(Cc1ccncc1)C(=O)C(C)O2 (stereo unspecified)
  -4.0, 4.1, -8.1, 0.0, -2.3, -3.4, /, ?, ?, -6.5

An excerpt of these results, as comma-separated lines.
SMILES,Ecoli rRNA inh RFP,T cruzi repl,Calb FLC,RanGTP-Impb inh,Ecoli rRNA inh OD600,Beta cell apopt,AF4-AF9 inh,Bfl-1 A1 inh,Vif TR-FRET,Ecoli rRNA inh
Fc1ccc(NC(=S)N2CCCc3ccccc32)cc1,/,-3.1,-17.0,-0.8,/,1.4,/,-0.3,?,/
O=C1C(c2ccc(F)cc2)N(CC2COc3ccccc3O2)C(=O)CN1C1CCCCC1 (stereo unspecified),/,17.8,4.7,?,/,2.8,/,2.3,-1.2%,/

The list goes on.
Results follow in this order: Ecoli rRNA inh RFP, T cruzi repl, Calb FLC, RanGTP-Impb inh, Ecoli rRNA inh OD600, Beta cell apopt, AF4-AF9 inh, Bfl-1 A1 inh, Vif TR-FRET, Ecoli rRNA inh
- COc1cc(CN2CCNC(=O)C2CC(=O)N(C)CCCN2CCOCC2)cc(OC)c1 (stereo unspecified)
  -1.1, -1.4, -3.4, -4.8, 3.1, 0.1, 0.2, ?, 3.8%, 17.4
- Brc1ccccc1OCCN1CCCC1
  -0.6, 17.6, -3.9, 3.1, -2.1, /, 0.4, 1.6, /, 14.5
- COC(=O)c1sccc1NC(=O)Nc1cccc(C(C)=O)c1
  -1.0, /, 3.8, -1.9, 4.1, -0.5, 0.5, 2.9, 3.5%, -4.0
- COc1ccc(C(=O)NCCn2ccc3ccccc32)cc1OC
  1.1, -2.0, 7.7, -4.2, 2.5, -2.1, 15.0, -0.4, 1.9%, -1.2
- CCOc1ccc(NC(=O)CC)cc1
  -2.5, -17.9, -6.6, -0.2, -2.4, /, -0.4, 1.8, -4.7%, 12.7
- COc1ccccc1-c1nnc(SCC(=O)Nc2cc(C)on2)o1
  /, -20.5, 4.9, 1.1, /, -1.5, /, -0.3, 3.8%, /
- Cc1cc(C)c(NC(=O)COC(=O)c2ccncc2)c(C)c1
  2.7, /, /, /, 6.6, -1.3, 3.4, -1.0, -3.1%, 11.8
- Cn1c(=O)n(Cc2ccccc2F)c(=O)c2c1nc1n2CCCN1CCc1ccccc1
  /, 7.4, -19.1, 1.2, /, 6.0, /, -0.1, -0.9%, /
- O=C1NC(=O)c2cc(NC(=O)C3CCCCC3)ccc21
  -2.1, -3.4, 6.9, ?, 1.5, -3.2, -4.2, -0.3, 18.3%, 4.1
- COc1ccccc1NC(=O)c1cc(C(=O)Nc2ccccc2OC)cc(N2C(=O)CCC2=O)c1
  /, -3.2, -1.2, -1.2, /, -3.3, /, -0.2, 26.1%, /
- COc1ccc(NC(=O)c2cc(CC(C)C)nc3ccccc23)cc1
  -8.3, 1.6, 26.5, -1.1, 0.5, -4.1, 2.5, 1.3, /, -7.0
- Cc1ccccc1N(CC(=O)NCc1ccc2c(c1)OCO2)C(=O)CCC(=O)Nc1ccccn1
  /, -0.9, -3.0, -1.5, /, -3.7, /, -0.3, -2.3%&-4.6%, /
- CCOC(=O)[C@H]1[C@H]2COc3ccccc3[C@@H]2N2C(=O)c3cc(OC)c(OC)cc3NC(=O)[C@@]12C
  -1.4, /, /, /, 4.3, -1.6, 2.0, 0.2, /, -3.3
- Cc1ccccc1OCCCCn1c(CO)nc2ccccc21
  -13.7, 11.5, 5.6, -0.9, -77.0, 5.6, 4.1, 0.2, 18.9%, -53.0
- Cc1nn(C)cc1/C=N/NC(=O)Cn1nnc(N)n1
  0.3, 6.1, 0.0, -1.5, 6.8, 1.5, 0.7, 0.4, -4.3%, 5.4
- CN1CCN(C(=O)CCN2C(=O)S/C(=C/c3ccc(Cl)cc3)C2=O)CC1
  1.2, -1.2, /, /, 18.9, -5.2, 1.4, 0.2, -6.1%, 3.8
- Cc1ccc(NC(=O)CN2C(=O)CCSc3ccc(S(=O)(=O)N4CCCC4)cc32)cc1C
  2.8, 26.5, -3.1, -0.7, 12.3, -5.2, 1.3, -0.4, /, 1.8
- COc1ccc(N(CC(=O)NCc2cccnc2)S(=O)(=O)c2c(C)nn(C)c2C)cc1
  -3.8, /, /, /, 7.7, -4.9, 1.7, -0.4, -6.4%, 2.9
- CCOC(=O)N1CCC(N2C(=O)c3ccccc3C2Nc2ccccc2C)CC1 (stereo unspecified)
  3.5, 10.4, -0.4, ?, -19.9, 3.0, 9.4, -0.2, 2.0%, -8.0
- CN(C(=O)CSc1nc2ccccc2n1CCc1ccccc1)C1CCS(=O)(=O)C1 (stereo unspecified)
  /, 6.2, -5.2, ?, /, 0.5, /, -0.4, 1.8%, /
- O=c1[nH]nc(CNc2ccc(OC(F)(F)F)cc2)c2ccccc12
  -3.4, 14.0, 28.8, -3.9, -15.9, -1.3, -0.8, 0.4, /, -14.6
- COCCNC(=O)/C(C#N)=C/c1c(N2CC(C)OC(C)C2)nc2ccccn2c1=O (stereo unspecified)
  /, -8.5, -11.4, 4.5, /, -4.1, /, 1.2, 6.3%, /
- CCOC(=O)c1cn2nc(N3CCCCC3)ccc2n1
  -0.5, 1.8, -4.0, 2.3, 2.1, -9.7, -1.0, -12.4, 1.3%, -2.1
- Clc1ccc(-c2nnc3c4ccccc4nc(N4CCOCC4)n23)cc1Cl
  /, 5.9, 41.7, -3.5, /, -6.1, /, 1.1, -9.3%, /
- O=C(COC(=O)c1ccc(Cl)nc1)NC1CCCc2ccccc21 (stereo unspecified)
  3.4, /, /, /, 15.1, -20.2, -4.6, 1.2, -7.0%, 3.4
- CCCCn1c(N)c(N(Cc2ccccc2OC)C(=O)C2=COCCO2)c(=O)[nH]c1=O
  0.7, 1.0, 11.7, 0.2, 18.9, 2.0, -0.9, -0.9, -1.4%, 17.7
- Cc1nnc(NC(=O)NCN2C(=O)C3C4C=CC(C4)C3C2=O)s1 (stereo unspecified)
  /, 13.4, 5.8, -3.4, /, /, /, 0.0, 8.6%, /
- Nc1cc(=O)[nH]c(SCC(=O)Nc2cc(Cl)cc(Cl)c2)n1
  /, -7.2, 13.0, -4.5, /, -3.8, /, 2.0, 3.7%, /
- O=C(N/N=C1\SCC(=O)N1CCc1ccccc1)c1cccs1
  1.8, 0.8, 3.3, -2.5, -0.6, 6.7, 3.9, 3.5, /, 4.4
- CSc1nc2sc3c(c2c(=O)n1C)CCC3
  -1.7, -7.6, -70.7, 3.1, -16.6, /, -31.3, -1.1, /, -9.8
- CCC(=O)c1cn(CC(=O)Nc2ccc(C)cc2C)c2ccccc12
  -5.1, -24.8, 11.0, 3.2, -7.8, -3.6, -6.4, 0.9, /, -11.2
- Cc1ccc(-n2c(CNc3ccc(F)cc3)nnc2SCC(=O)NCc2ccco2)cc1
  /, -6.6, 16.9, -1.4, /, 1.3, /, -1.6, 13.8%, /
- O=[N+]([O-])c1ccc(CS(=O)(=O)c2ccc(Cl)cc2)cc1
  -2.3, -12.1, 6.6, -0.7, 4.1, -3.7, -23.3, 0.0, 1.6%, 8.7
- NC(=O)c1ccc(NC(=O)CCN2C(=O)c3ccccc3C2=O)cc1
  7.9, -10.0, -5.4, -7.2, 12.7, -1.5, -1.0, 1.1, -10.5%, 9.0
- CCOc1ccc(CN2CCN(C(=O)c3cccc4ccccc34)CC2)cc1
  1.1, 8.6, 1.9, -0.4, -20.1, 1.1, -0.8, -0.3, /, -18.2
- CCN1CCN(CCNC(=O)c2ccc(/C=C3/Sc4ccccc4N(Cc4cccc(C)c4)C3=O)cc2)CC1
  -27.6, 59.0*, -4.1, ?, -80.2, 9.4, ?, 0.8, 27.6%, -57.8
- COc1cccc(CN2CCN(C(c3ccccc3)c3ccccc3)CC2)c1O
  -8.3, 4.9, -22.4, 2.8, -28.1, -5.2, 9.0, -0.6, 2.2%, -10.5
- COC(=O)CNC(=O)C1CCCN1C(=O)CNC(=O)OC(C)(C)C (stereo unspecified)
  /, 11.3, -2.9, 0.1, /, -2.8, /, 0.0, 0.1%, /
- COc1cc(C)c(C(=O)CC(=O)c2c(C)cc(OC)cc2C)c(C)c1
  -9.6, 66.2*, -1.6, -4.4, -29.1, 75.0*, -1.1, -0.1, /, -28.1

A portion of the library. The share of hits here may be higher or lower than overall.
